# VACV Venus inh: vaccinia inhibition (Venus reporter). Vaccinia virus Venus reporter expression, fluorescence. Potency, µM (series often up to 36.5 µM), for the others: top-dose activity change, negative = inhibition, most hits filed as inhibitors. actives 0.46% (n = 330,000); active means well fitted inhibition curve with a large enough effect; inconclusive means small, poorly fitted or top-dose-only effect; inactive means no such curve, though single readings can be large or run the other way; tested in A549 cells; note: nearly all actives have a fitted effect of over 30% in size; inactives centre near -10
# Vaccinia mCherry: inhibitors of vaccinia virus infection (mCherry reporter signal); Vaccinia virus mCherry reporter infection, fluorescence; about a quarter of the inactives have no number; Potency, µM (highest dose often 36.5 µM), for the others: at the top dose activity change, negative = inhibition, most hits filed as inhibitors; actives 0.63% (n = 310,000); AID 720579; active = well fitted inhibition curve with a large enough effect; inconclusive = small, poorly fitted or top-dose-only effect; inactive = no such curve, though single readings can be large or run the other way; tested in A549 cells; note: nearly all actives have a fitted effect of over 35% in size; inactives centre near -10
# Active calls of the source: *; i = inactive; ? = inconclusive; . = no result given. % is set by controls: 0 for no effect and ±100 for the full control effect; potency is the fitted concentration of half-maximal effect.
Structure	VACV Venus inh	Vaccinia mCherry
Cc1ccc(-n2nc(C(=O)NN)c(C)c(C#N)c2=O)cc1Cl	4%	-22%
Nc1nc(SCc2ccccc2)sc1C(=O)N1CCCCC1	-22%	-3%
NCC(CS(=O)(=O)O)c1ccc(Cl)cc1 (stereo not drawn)	-10%	-14%
Cc1ccc(Cl)c(OC(=O)Cn2cnc3c2c(=O)n(C)c(=O)n3C)c1	-9%	-5%
NS(=O)(=O)c1ccc(NC(=O)CSc2nc3ccccc3[nH]2)cc1	-6%	-13%
O=C(NCCc1ccco1)C(=O)NCC1OCCCN1S(=O)(=O)c1ccc(Cl)cc1 (stereo not drawn)	-15%	-8%
CC(C)NC(=O)N1CCOCCOCCN(C(=O)NC(C)C)CCOCCOCC1	13%	.
Cc1ccc(CN2C(=O)N(c3ccccc3)C(=O)C2CC(=O)Nc2ccccc2)cc1 (stereo not drawn)	2%	-3%
Cc1ccc2c(c1)c1c(c(=O)n(-c3ccccc3C)c(=O)n1CC(=O)NCCC1=CCCCC1)n2C	-1%	3%
CCN(CC)c1ccc(-c2nc(-c3ccncc3)no2)cc1[N+](=O)[O-]	-2%	1%
CCn1cc(C(=O)N2CCN(c3cc(Cl)ccc3C)CC2)c(=O)c2cc(S(=O)(=O)N3CCCCC3)ccc21	-25%	?
CCc1ccc(S(=O)(=O)c2cnc3ccc(OC)cc3c2N2CCCC(C)C2)cc1 (stereo not drawn)	-15%	i
O=C(c1ccc(COc2ccc(Cl)cc2)o1)N1CCN(Cc2ccc3c(c2)OCO3)CC1	-19%	-22%
O=C(NC1=NCCS1)c1ccccc1Cl	-4%	-3%
COc1ccccc1CNS(=O)(=O)c1ccc(S(=O)(=O)NC2CC2)cc1	-5%	-5%
CCN(CC)C(=O)C1=C(C)N(CCCN2CCCC2=O)C(=O)C(CC(=O)NC2CCCC2)C1 (stereo not drawn)	-2%	-15%
COc1ccc(-c2nnc(SCC(=O)NCCc3ccccc3)nc2-c2ccc(OC)cc2)cc1	3%	-10%
Cc1cc(Cl)c2ccc(Cl)cc2n1	-9%	-8%
CS(=O)(=O)N1CCN(C(=S)NCc2ccc(F)cc2)CC1	-5%	-9%
O=C(CCCCO)c1ccc(O)c(Cl)c1	-9%	i
N#Cc1ccccc1OCCCN1CCC(C(O)(c2ccccc2)c2ccccc2)CC1	-27%	?
COc1ccc(S(=O)(=O)N2CCC(C(=O)NCc3cccnc3)CC2)cc1Cl	1%	i
Cc1cccc(N2C(=O)N(c3ccccc3C)C3CS(=O)(=O)CC32)c1 (stereo not drawn)	16%	.
Cc1ccccc1NC(=O)CC1SC(=O)N(c2ccccc2)C1=O (stereo not drawn)	13%	4%
Cc1cc(=O)n(-c2ccc(Cl)cc2)c(=O)[nH]1	-5%	i
CC(=O)c1c(C)nc(-c2ccc(Cl)cc2)nc1N=CN(C)C	-13%	-15%
C[C@@H]1CN([C@H](C)CO)C(=O)c2cc(NC(=O)Nc3ccc(F)cc3)ccc2O[C@@H](C)CCCCO[C@H]1CN(C)S(=O)(=O)c1ccc(Cl)cc1	-23%	-9%
CCCN(C(=O)c1cc2c(=O)oc3ccc(C)cc3c2s1)c1ccc(OCC)cc1	5%	-2%
O=C(NCC(c1ccco1)N1CCCCC1)c1cnc(Cl)c(Cl)c1 (stereo not drawn)	-6%	-9%
CC1(C)CC2(CCCN3C(=O)CSC32)CCS1 (stereo not drawn)	-1%	.
Cc1ccc(OCCOCCn2cnc3ccccc3c2=O)c([N+](=O)[O-])c1	-10%	-9%
OCc1nnn(-c2cccc(C(F)(F)F)c2)c1CO	-14%	i
O=C(c1ccc(NS(=O)(=O)c2ccc(Cl)c(Cl)c2)cc1)N1CCOCC1	-6%	i
COc1ccccc1N(C)S(=O)(=O)c1ccc(Cl)c(C(=O)NCC2(N(C)C)CCCCC2)c1	-13%	-14%
Cc1ccccc1Cc1c(C)nc2nc(SCC(=O)NCCCN3CCCCC3)nn2c1C	-5%	-8%
CCOC(=O)c1nnn(-c2nonc2N)c1CS(=O)(=O)c1ccccc1	0%	-16%
COc1ccc2nc(NC(=O)CSc3nnnn3C)sc2c1	-16%	-21%
O=C(CCN1C(=O)/C(=C/c2ccccc2)SC1=S)Nc1cccnc1	0%	-11%
O=S(=O)(Nc1ccccc1Cl)c1ccc(-c2ccccn2)s1	-9%	-6%
O=C(C1=C[C@H](c2ccc(Br)cc2)C[C@H](OCCCCO)O1)N1CCN(Cc2ccc3c(c2)OCO3)CC1	?	?
Cc1ccc(-n2ncc3c2CCCC3NC(=O)CCc2c(C)noc2C)cc1C (stereo not drawn)	-14%	i
COc1cc(OC)cc(C2=Cc3ccccc3C(CC(C)=O)N2c2ccc(-c3cccs3)cc2)c1 (stereo not drawn)	1%	-6%
CCCN1C(=O)N(C)C(N(O)C(=O)NC)C1(C)C (stereo not drawn)	-8%	.
CC(C)CNC1CCS(=O)(=O)C1 (stereo not drawn)	-11%	-13%
Cc1cccc(NC(=O)CN2C(=O)N/C(=C\c3ccc(N4CCOCC4)cc3)C2=O)c1	-7%	-4%
CCC(C)(C)NC(=O)C(c1ccc(OC)cc1)N(C(=O)CCC(=O)Nc1cc(C)on1)c1cc(OC)ccc1OC (stereo not drawn)	-9%	-18%
COc1ccc(N(CC(=O)N2CCOCC2)S(C)(=O)=O)cc1Cl	4%	-8%
C[C@@H]1CCCCO[C@@H](CN(C)Cc2ccc(Cl)c(Cl)c2)[C@@H](C)CN([C@H](C)CO)C(=O)c2cc(NC(=O)CCC(F)(F)F)ccc2O1	?	?
C=CCC1(CC)C(=O)NC(=S)NC1=O	-2%	i
O=C1c2ccccc2[C@@H]2C[C@@H](O)[C@H](Nc3ccccc3)CCN12	-6%	i
O=C(CSc1nc2ccccc2o1)c1ccccc1	-11%	.
Cc1ccnc(NS(=O)(=O)c2ccc(NC(=O)CCc3ccccc3)cc2)n1	0%	i
Cc1ccc(C2CC(=O)C=C(Nc3ccc(Cl)cc3)C2)cc1 (stereo not drawn)	-16%	i
CN(CCOc1ccccc1)C(=O)C1CCC(=O)N(CCc2ccc(Cl)cc2)C1 (stereo not drawn)	-10%	-25%
COc1ccc(CS(=O)(=O)CC(C)(O)c2ccccc2Cl)cc1 (stereo not drawn)	-23%	-7%
Clc1ccc(-[n+]2c(-c3cccc(Br)c3)[nH]c3nc4ccccc4nc32)cc1	-8%	i
Cc1cc(C)cc(OC(C)C(=O)Nc2c(C(=O)c3ccccc3)oc3ccccc23)c1 (stereo not drawn)	-4%	0%
O=c1c2ccccc2nc(/C=C/c2ccc([N+](=O)[O-])o2)n1-c1ccc(O)cc1	-25%	3.5µM*
COc1ccc(N2CC(NC(=O)/C=C\c3ccc(OC)c(OC)c3)CC2=O)cc1 (stereo not drawn)	-14%	-17%
O=C(NNC(=S)Nc1ccc(Br)cc1)c1ccccc1Br	-17%	-22%

# Next compounds:
Structure	VACV Venus inh	Vaccinia mCherry
CN(C(=O)COC(=O)COc1ccc(Cl)cc1Cl)c1c(N)n(Cc2ccccc2)c(=O)[nH]c1=O	-17%	i
COc1ccc(CN2C[C@@H](CO)O[C@@H](n3cnc4c(NCCCO)ncnc43)C2)cc1	-6%	-13%
Cc1cc(C)c(C)c(S(=O)(=O)N2CCN(Cc3nc4ccccc4[nH]3)CC2)c1C	-17%	-16%
O=C(CSc1ccc2ccccc2c1)NCc1cccs1	-15%	-15%
O=C1CN(C(=O)c2ccccc2C(F)(F)F)C(c2ccccc2)c2cc(F)ccc2N1 (stereo not drawn)	-13%	-9%
COc1cccc(NC(=O)Cn2c(=O)n(-c3ccc(C)cc3)c(=O)c3ccc(C(=O)NCc4ccco4)cc32)c1	-13%	-6%
COc1cc(CCN(C(C)=O)C2C(=O)Nc3ccccc3N=C2c2ccc3c(c2)OCO3)cc(OC)c1 (stereo not drawn)	-1%	19%
Cc1ccc2c(c1)C(c1ccccc1)N(C(=O)c1cc3ccccc3oc1=O)CC(=O)N2 (stereo not drawn)	-10%	i
CCOC(=O)C1(CCOC)CCN(Cc2ccccc2-c2ccco2)CC1	1%	-19%
CCc1cc(Cn2nc(-c3ccccc3)cc2C(=O)O)on1	-8%	i
Cn1c(=O)n(C)c2cc([N+](=O)[O-])c(N3CCN(S(=O)(=O)c4ccc5ccccc5c4)CC3)cc21	-14%	-22%
CC(=O)N1CCN(c2nnc(-c3ccc(C)cc3)c3ccccc23)CC1	-16%	-1%
O=S(=O)(Nc1nc2ccc(Cl)cc2s1)c1cccs1	5%	-5%
N#Cc1ccccc1Cn1nnc2c(=O)[nH]c(C3CCCN(S(=O)(=O)c4ccc(F)cc4)C3)nc21 (stereo not drawn)	-3%	i
Cc1cccc(Nc2nc(N)c(C#N)c(CC#N)c2C#N)c1	-11%	-25%
CCCSc1ccc([C@H]2N[C@@](C)(C(=O)OC)[C@H]3C(=O)N(C)C(=O)[C@@H]23)cc1OC	?	-8%
CCCCNC(=O)c1cccc(NC(=O)c2nsc3ccccc23)c1	-3%	5%
COCC(C)N1CC(O)=C(c2nc(-c3ccc(Cl)cc3)cs2)C1=N (stereo not drawn)	-25%	-24%
CCOc1cc(N2CCOCC2)c(OCC)cc1NC(=O)c1cc(S(=O)(=O)N2CCOCC2)ccc1F	4%	i
CC(=O)Nc1ccc2sc(NC(=O)CN3CCOCC3)nc2c1	-11%	i
Cn1c(=O)[nH]c(=O)c2c1nc(CN1CCOCC1)n2CCc1ccccc1	-1%	-10%
C=CCNC(=O)c1onc(CSc2cccc3ccccc23)c1C(=O)O	-10%	i
Cc1ccc(NC(=O)CSc2nnc3ccccn23)cc1S(=O)(=O)N1CCOCC1	-4%	-3%
COC(=O)CN1C(=S)N(c2ccc(OC)cc2)C(=O)/C1=C/c1ccc(OC)cc1	-16%	-18%
CN(C)c1ccc(/C=N\S(=O)(=O)c2ccccc2)cc1	-1%	-11%
COc1ccc(OCCn2cc(/C=C(\C#N)C(=O)NCc3ccco3)c3ccccc32)cc1	-21%	-12%
Cc1c(C)n2c3c(cccc13)CC2	-1%	-4%
CCN1CCN(S(=O)(=O)c2ccc(Cl)c(C(=O)Nc3nnc(CC(C)C)s3)c2)CC1	-17%	.
COC(=O)/C(=C(O)\C=C\c1ccccc1[N+](=O)[O-])c1nc2ccccc2[nH]1	?	?
Cc1cc(C2=NNC(=NC3CCCCC3)SC2)c(C)n1-c1c(C)n(C)n(-c2ccccc2)c1=O	-30%	-21%

# The list goes on; the last 2 above are carried over.
Structure	VACV Venus inh	Vaccinia mCherry
COC(=O)/C(=C(O)\C=C\c1ccccc1[N+](=O)[O-])c1nc2ccccc2[nH]1	?	?
Cc1cc(C2=NNC(=NC3CCCCC3)SC2)c(C)n1-c1c(C)n(C)n(-c2ccccc2)c1=O	-30%	-21%
CC(C)CC(NC(N)=O)C(=O)Nc1ccc(Oc2ccccc2)cc1 (stereo not drawn)	-14%	i
Cc1ccc(CSc2sc(C(=O)c3ccccc3)c(N)c2C#N)cc1	-6%	.
Cn1nnnc1SCCNC/C=C/c1ccccc1	-4%	i
O=S(=O)(Nc1cccnc1)c1ccc2c(c1)OCCO2	-6%	i
CN1C(=O)Cc2cc(S(=O)(=O)NCc3ccc(Cl)cc3)ccc21	2%	-2%
CCc1cccc(NC(=O)Cn2ncn3c(cc4ccccc43)c2=O)c1	-11%	i
CN(C)C(=O)Oc1c(Cl)cc(Cl)c2ccccc12	-16%	.
COc1ccc([N+](=O)[O-])cc1/C=N/Nc1nc(N2CCCCC2)nc(N2CCCCC2)n1	6%	6%
N#Cc1cccc(C(=O)N(CCc2ccccc2)Cc2cccs2)c1	-10%	-19%
COc1ccc(-c2nnc(SCC(=O)c3cccs3)o2)cc1	-8%	.
CC(C)c1ccccc1NC(=O)COC(=O)c1cccnc1	-14%	-23%
CN1CCN(C(N)=NC(=O)c2ccccc2)CC1	-5%	-11%
CC1CN(C(=O)C2CCCN2S(=O)(=O)c2ccc(Cl)cc2)CC(C)O1 (stereo not drawn)	-1%	-27%
COc1ccc(NS(=O)(=O)c2cccc(C(=O)N3CCN(Cc4cc(OC)ccc4OC)CC3)c2)cc1	-18%	-1%
CCc1nc2c(OCc3ccccc3C(=O)OC)cccn2c1N(C)C(=O)c1cccc(OC)c1	2%	28%

# Structures above that contain a CF3 group, in the order listed:
Structure	VACV Venus inh	Vaccinia mCherry
OCc1nnn(-c2cccc(C(F)(F)F)c2)c1CO	-14%	i
C[C@@H]1CCCCO[C@@H](CN(C)Cc2ccc(Cl)c(Cl)c2)[C@@H](C)CN([C@H](C)CO)C(=O)c2cc(NC(=O)CCC(F)(F)F)ccc2O1	?	?
O=C1CN(C(=O)c2ccccc2C(F)(F)F)C(c2ccccc2)c2cc(F)ccc2N1 (stereo not drawn)	-13%	-9%

# (next part)
Structure	VACV Venus inh	Vaccinia mCherry
OCCN1CCN(c2cc(-c3ccccc3)c3ccccc3n2)CC1	-24%	-15%
CN(C)CCN(Cc1ccco1)S(=O)(=O)c1cc2c(cc1Cl)NC(=O)CO2	-3%	i
Cc1cccc(N(CC(=O)NCCc2ccccc2)C(=O)c2csnn2)c1	-2%	i
O=C(O)c1ccccc1-c1nc2ccccc2c(=O)[nH]1	-5%	-4%

# High-throughput results (PubChem)

# Hits appear at their usual frequency. Share with any hit: about 0.86%.
